# Screening data from PubChem.
# Tg IFNy HTS: T. gondii growth inhibition under IFN-gamma; Toxoplasma gondii growth in IFN-gamma-treated host cells; hits give low values; reference of the scale not given here; activity change, negative = inhibition, %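 (about 20 µM by stock and volumes)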; hit rate 3.8% among 69,000; AID 1259416;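 active = below -70%; inconclusive = fit judged invalid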;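 note: host cells are HeLa cells infected with Toxoplasma gondii; parasite growth read as luciferase light; one replicate is shown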
# Numbers without * were called inactive; ? = inconclusive; & = joins results of further samples. Some of the compounds tested. The share of hits here may be higher or lower than overall.
SMILES,Tg IFNy HTS
COc1ccc(S(=O)(=O)N(C)C[C@H]2OCCCC[C@@H](C)Oc3ccc(NC(=O)Cc4ccccc4)cc3C(=O)N([C@@H](C)CO)C[C@H]2C)cc1,-102*
Cn1cc(C2CC(=O)NC23CCN(C(=O)c2ccco2)CC3)cn1 (stereo not given),0
CCOc1cc(C2c3nc[nH]c3CCN2Cc2ccco2)ccc1OC (stereo not given),2
CC(=O)Nc1ccc(S(=O)(=O)N2CCC3(CC2)Nc2ccccc2-n2cccc23)cc1,38
C=CCOC1C2CCCC1CN(c1nncs1)C2 (stereo not given),-35
CC(C)CS(=O)(=O)N1CCC2(CC1)CC(CC(=O)NCC1CC1)c1ccccc12 (stereo not given),-14
Cc1ccc(-c2cccc(C(=O)O)c2)nn1,8
CC(C)N1CCc2c(C(=O)N3CCN(C)CC3)nn(C)c2C1,-6
CC1=NN(C(=O)CCCc2ccccc2)C(O)(c2ccc(Br)cc2)C1 (stereo not given),10
Cc1cccnc1[C@H](C)NC(=O)Cc1cc2c(cc1Cl)OCCO2,-1
O=C(NCCN1CCC(O)(c2ccc(F)cc2)CC1)c1c(F)cccc1F,13
C[C@H]1CCCCO[C@H](CN(C)Cc2ccc3c(c2)OCO3)[C@@H](C)CN([C@@H](C)CO)C(=O)c2cc(NS(=O)(=O)c3cn(C)cn3)ccc2O1,167
CC(C)(O)C#Cc1ccc(C(=O)N2CCC(c3ccccc3Cl)C2)o1 (stereo not given),18
C[C@H](CO)N1C[C@H](C)[C@H](CN(C)S(=O)(=O)c2ccc(Oc3ccccc3)nc2)OCc2cnnn2CCCC1=O,19
Cc1cnc(N(C)CCCc2nccn2C)nc1N(C)C,0
CCn1nnc2c1C(COCCN(C)C)CN(CC1CC1)C2 (stereo not given),199
C=CCN1C(=O)C2(NCCc3c2[nH]c2ccc(F)cc32)c2ccccc21 (stereo not given),57
COc1ccc2c(C)c(C(=O)NCCn3c(C)cc(C)nc3=O)oc2c1,0
CC(=O)N[C@@H](Cc1cnc[nH]1)C(=O)N1C[C@@H]2C3CCC(CC3)[C@@H]2C1,5
C#CCOC(=O)NC(=O)c1ccc(C(F)(F)F)cc1,-15
Cc1cc(NC(=O)c2sc3ccccc3c2Cl)no1,335
COc1cc(C(=O)NCCCn2ccnc2C)nc(OC)n1,-11
Cn1cc(CN2CCC3(CC(=O)N(c4ccc(F)c(F)c4)C3)C2)cn1 (stereo not given),12
CCOc1ccc2nc(Nc3nc(CSc4nnc(C)s4)cc(=O)[nH]3)nc(C)c2c1,-15
CC=Cc1ccc2n(c1=O)C[C@@H]1[C@@H](CO)[C@H](C(=O)N[C@H](C)c3ccccc3)N(C(=O)c3ccccn3)[C@H]21 (mixture of isomers),-20
CC(C)(C)c1cc(N)n2nc(C(C)(C)C)cc2n1,-33
CC(C)c1ccc2c(c1)CCC1C(C)(C(=O)O)CCCC21C (stereo not given),41
Cc1nc(C(F)(F)F)nc(N2CCCn3cncc3C2)c1C,?
CCOC(=O)c1ccc(NC(=O)NCC(c2cccnc2)c2c[nH]c3ccccc23)cc1 (stereo not given),50
CC1CN(CC(=O)NCc2ccc3c(c2)OCO3)Cc2cc(Cl)ccc2O1 (stereo not given),3
CN(C(=O)c1nc2ccccc2c(=O)[nH]1)C1Cc2ccccc2C1,1
Cc1[nH]cnc1CN(Cc1ccsc1)CC1CCCO1 (stereo not given),-2
CNC(=O)Cn1cc(NC(=O)c2ccc(CN3CCCC(C)C3)cc2)cn1 (stereo not given),14
CCN(CC)C(=O)c1cc(C)nc2c1c(=O)n(Cc1nc(-c3ccccc3)oc1C)c(=O)n2C,4
CCC(C)N(Cc1ccncc1)C(=O)c1ccccc1OC(F)F (stereo not given),127
COCCN1C(=O)CCC2C1CCN2C(=O)c1ccc2[nH]ccc2c1 (stereo not given),0
Cc1ccccc1N=C(N)Nc1ccccc1C,17&10
O=C(c1ccc(Oc2ccccc2)o1)N1CCCn2cncc2C1,7
O=C(NC1CCC1)[C@H]1C[C@@H]2CN(S(=O)(=O)c3ccccc3)C[C@H]1O2,1
Cc1cc(CC(=O)N2CCCn3nc(C(=O)Nc4ccccc4)cc3C2)on1,19
CCNC(=O)C1CCN(c2cc(C(C)C)nc(C)n2)C1 (stereo not given),3
CC(C)(C)OC(=O)NC1CCNCC1,48
CC(C)c1ncc(CN(Cc2ccccn2)Cc2ccco2)cn1,29
CC(C)OC(=O)c1ccc(NC(=O)c2cncc(Br)c2)cc1,40
Cc1nc(CNC(=O)C2CCCN(C3CCN(Cc4cccnc4)CC3)C2)no1 (stereo not given),-4

# Part of the list above in order of SMILES length, lowest first.
SMILES,Tg IFNy HTS
CC(C)(C)OC(=O)NC1CCNCC1,48
Cc1ccccc1N=C(N)Nc1ccccc1C,17&10
Cc1cc(NC(=O)c2sc3ccccc3c2Cl)no1,335
COc1cc(C(=O)NCCCn2ccnc2C)nc(OC)n1,-11
CC(C)(C)c1cc(N)n2nc(C(C)(C)C)cc2n1,-33
CCNC(=O)C1CCN(c2cc(C(C)C)nc(C)n2)C1 (stereo not given),3
Cc1nc(C(F)(F)F)nc(N2CCCn3cncc3C2)c1C,?
O=C(c1ccc(Oc2ccccc2)o1)N1CCCn2cncc2C1,7
CC(C)OC(=O)c1ccc(NC(=O)c2cncc(Br)c2)cc1,40
COCCN1C(=O)CCC2C1CCN2C(=O)c1ccc2[nH]ccc2c1 (stereo not given),0
CN(C(=O)c1nc2ccccc2c(=O)[nH]1)C1Cc2ccccc2C1,1
CC1CN(CC(=O)NCc2ccc3c(c2)OCO3)Cc2cc(Cl)ccc2O1 (stereo not given),3
Cn1cc(CN2CCC3(CC(=O)N(c4ccc(F)c(F)c4)C3)C2)cn1 (stereo not given),12
CCOc1ccc2nc(Nc3nc(CSc4nnc(C)s4)cc(=O)[nH]3)nc(C)c2c1,-15
CCOC(=O)c1ccc(NC(=O)NCC(c2cccnc2)c2c[nH]c3ccccc23)cc1 (stereo not given),50
O=C(NC1CCC1)[C@H]1C[C@@H]2CN(S(=O)(=O)c3ccccc3)C[C@H]1O2,1
CCN(CC)C(=O)c1cc(C)nc2c1c(=O)n(Cc1nc(-c3ccccc3)oc1C)c(=O)n2C,4
CC=Cc1ccc2n(c1=O)C[C@@H]1[C@@H](CO)[C@H](C(=O)N[C@H](C)c3ccccc3)N(C(=O)c3ccccn3)[C@H]21 (mixture of isomers),-20

# Later entries
SMILES,Tg IFNy HTS
CCN(CC)C1CCN(c2ccc(-c3ccccc3OC)nn2)C1 (stereo not given),1
O=C(NCc1cccnc1N1CCOCC1)c1cn(CC2CCCNC2)nn1 (stereo not given),-50
CC(=O)c1sc(-c2ccc(C(C)(C)C)cc2)cc1N,419
O=C1CCCCN1CCNCc1cn(-c2ccc(F)cc2)nc1-c1ccccc1Cl,9
Cc1noc(C)c1C(=O)NCc1ccc2c(c1)OCO2,-40
COc1ccc(S(=O)(=O)N(C)C[C@@H]2Oc3ncccc3C(=O)N([C@H](C)CO)C[C@@H]2C)cc1,17
Cn1ncc(NC(=O)Nc2cc(Cl)ccc2Cl)c1-n1cccc1,-2
CCCNC(=O)N1CCC2(CC1)CN(C(=O)COC)[C@H](CO)c1[nH]c3cc(OC)ccc3c12,7
Cc1ccccc1N1C(=O)c2cc(S(N)(=O)=O)c(Cl)cc2NC1C (stereo not given),1&16
Cc1cc2nc(CN3CCCC(CCc4ccc(F)cc4F)C3)cc(=O)n2[nH]1 (stereo not given),-36
CCc1cccc(NC(=O)CCC(=O)NCc2cnc(C)cn2)c1,-33
CO[C@H]1CN(C)C(=O)c2cc(NC(C)=O)ccc2OC[C@H](C)N(Cc2ccncc2)C[C@H]1C,-27
Oc1ccc2ccccc2c1C1Nc2cccc3cccc(c23)N1,13
CCn1c(=O)c(-c2nc(-c3ccccc3C)no2)c(O)c2cc(F)ccc21,35
COc1ccccc1N1CCC(NC(C)c2c(C)nn(C)c2C)CC1 (stereo not given),7

# Structures above that contain a thiophene ring, fused or not, in the order listed:
SMILES,Tg IFNy HTS
Cc1cc(NC(=O)c2sc3ccccc3c2Cl)no1,335
Cc1[nH]cnc1CN(Cc1ccsc1)CC1CCCO1 (stereo not given),-2
CC(=O)c1sc(-c2ccc(C(C)(C)C)cc2)cc1N,419

# Continuation:
SMILES,Tg IFNy HTS
CN(C)C(=O)[C@]12CCCN(C(=O)c3ccccn3)C[C@@H]1CN(c1ccccn1)C2,4
O=C(C1=NNCC1c1ccccc1)c1ccccc1 (stereo not given),-36
CCO[C@H]1CO[C@@]2(CCCN(C(=O)CC3=CCCCC3)C2)C1,-36
Cn1nc(-c2ccccc2)cc1NC(=O)C1CCCCC1,47
O=C(C1CCOCC1)N1CCC2(CCN(Cc3cccc(F)c3)C2=O)C1 (stereo not given),3
CC(C)CN1CCc2[nH]nc(C(=O)N3CC=CC3)c2C1,-28
COc1cccc(-c2ccc(C3[C@H]4CNC[C@@H]3N4CC3CCCCC3)cc2)c1 (stereo not given in full),-30
COc1ccc(S(=O)(=O)N2CCN(S(=O)(=O)c3cc4c5c(c3)CCN5C(=O)CC4)CC2)cc1,26
CC(=O)c1c(C)cc(NC(C)(C)C)nc1NC(C)(C)C,29
COCCn1c(C(=O)NCCCN2CCOCC2)cc2c1c1ccccc1n2C,0
O=C1CCCCCN1CCC(=O)N1CCOC(c2ccc(Cl)cc2)C1 (stereo not given),95
Cc1nc(CN(C(=O)c2ccccc2N2CCOCC2)C(C)C)no1,48
CSc1nc(COc2ccc(C(C)(C)C)cc2)nc(-n2cccc2)c1C#N,25
Cc1nn(CC(=O)NCCN(C)C)c(=O)c2nc(-c3ccccc3)sc12,11
O=C(NC1CCC1)[C@H]1C[C@@H]2CN(C(=O)Nc3ccccc3Cl)C[C@H]1O2,37
CN1CCN(CCO)C(=O)C12CCN(S(=O)(=O)C1CC1)CC2,-5
CC(C)(C)c1cc(Cn2cnnc2)[nH]n1,2
Cc1ccc(S(=O)(=O)NCCc2csc(-c3ccc(F)cc3)n2)s1,-102*
CCn1c(=O)c(C(=O)Nc2ccccc2Cl)c(O)c2ccccc21,227
COc1cccc(-c2cn[nH]c2C2CCN(C3CCOCC3)CC2)c1,1
O=C(COc1ccc(-c2nccn2C2CCCC2)cc1)N1CCOCC1,5
OCCNc1ncnc2ccc(-c3cccc4[nH]ccc34)cc12,-57
COc1ccc2c3c([nH]c2c1)[C@H](CO)N(S(C)(=O)=O)CC31CN(CC2CCOCC2)C1,7
CC(C)NC(=O)N1CC2(C1)[C@H](c1ccccc1)[C@H](CO)N2C(=O)C1CCOCC1,-2
Cc1cccc(-n2cc(CN(C)Cc3ccno3)c(-c3cccc(F)c3)n2)c1,9
CCC(CC)C(=O)N1CCCn2cnc(CN3CCCC3=O)c2C1,2
CNC(=O)CC1CC2(CCN(S(=O)(=O)C3CC3)CC2)Oc2ccccc21 (stereo not given),1
COC(=O)c1cccc(CN2CCC2c2ccc(F)cc2)n1 (stereo not given),-2
CCc1cc(N2Cc3cnn(CCO)c3C2)nc(N2CCCC2)n1,1
O=C(Nc1cccc(N2CCC(NCc3ccccc3OC(F)(F)F)CC2)c1)c1ccncc1,9
Cc1c(-c2cc(NC(=O)c3ccccc3)n(C)n2)sc2ccc(Cl)cc12,-59
Cn1c(=O)c2c(nc(NCCc3ccccc3)n2CC(=O)Nc2ccccc2)n(C)c1=O,6
CC(C)N1CCO[C@H]2CN(C(=O)c3cnccn3)C[C@@H]21,3
Cc1nc(-c2ccccc2)nc2c1COCC21CCN(C(=O)CCC(C)C)C1 (stereo not given),-36
CC(C)NC(=O)N1CC2(C1)[C@@H](c1ccccc1)[C@@H](CO)N2C(=O)C1CCOCC1,40
COc1ccccc1C1(CCNS(=O)(=O)N2CCCC2)CCOC(C)(C)C1 (stereo not given),3
COc1cccc(NC(=O)Nc2ccc3c(c2)C(=O)N(C)C[C@H](OC)[C@@H](C)CN(CC2CC2)[C@@H](C)CO3)c1,209
CCc1cccc(NC(=O)CCC(=O)NCC2(C)CCCO2)c1 (stereo not given),-5
O=c1c(C(F)(F)F)cccn1Cc1ccc(Cl)cc1,-41
Cc1ccc(N2CC[C@@H](O)[C@@H]2Cc2ccccc2)nn1,10
CCOCc1ncn2c1CN(C(=O)c1cc(C)oc1C)CC2,-1
CN1C(=O)CCc2cc(NS(=O)(=O)c3ccc(Br)s3)ccc21,-97*
COc1ccccc1S(=O)(=O)N1CC[C@H]2[C@H](CO)Nc3ccc(-c4ccc(C#N)cc4)cc3[C@H]21,-41
Cn1nc(CN2CCCC2=O)c2c1CN(C(=O)CO)C2,22
Cc1cc(F)ccc1NC(=O)c1nc(Nc2ccccc2)c2ccccc2n1,-20
O=C(Cc1c(F)cccc1Cl)Nc1ncccn1,-53
CSc1ccc(C2c3[nH]c4ccccc4c3CCN2C(=O)c2cc3ccccc3[nH]2)cc1 (stereo not given),-96*
COc1ccc(C)cc1NC(=O)N1CCC2(CC1)Nc1ccccc1-n1cccc12,459
Cn1cccc1C(=O)N1CCc2c(CN3CCCC3)n[nH]c2C1,6
c1cnc(N2CCCC3(CC(Oc4cccnc4)CO3)C2)nc1 (stereo not given),0
Cc1ccc(C)c(NC(=O)N2CCC3(CC2)NC(=O)c2ccccc2N3C)c1,-18
Cn1ccnc1CN(CCn1c(=O)oc2ccccc21)C1CC1,3
COCCN1C[C@H]2[C@H](OC)CCN(CCc3ccccc3)[C@H]2C1,3
COCc1cnc2n1CCN(S(=O)(=O)c1cn(C)cn1)C2C (stereo not given),-2
CC(=O)Oc1cccc(O)c1,-40
Cc1cccc(CC(=O)NCCc2sc(-c3ccc(Cl)cc3)nc2C)c1,-27
CNc1cc(C2CCN(Cc3ccc(-c4ccccc4)cc3)CC2)nc(CN(C)C(C)=O)n1,-24
Cc1cc(C)n(Cc2nc(-c3ccc(NC(=O)c4ccccc4F)cc3)oc2C)n1,-41
Cc1[nH]nc(CCC(=O)N2CCCC3(CNC(=O)O3)C2)c1C (stereo not given),-53
NCC(=O)N1CCC(N2CCCC(C(=O)N3CCOCC3)C2)CC1 (stereo not given),-3
Cc1c(Cc2ccccc2)c(=O)oc2c(CN(C)C)c(O)c(Cl)cc12,9
O=c1ccc2cc(S(=O)(=O)NCCN3CCOCC3)ccc2[nH]1,-58
COCC(=O)N1[C@H](C#N)[C@H](c2ccccc2-c2ccccc2F)[C@H]1CO,-3
